# Assay outcomes as filed in PubChem.
# HNF4A DNA FP – change in binding of human HNF4 alpha to DNA | P41235 | HNF4a-FITC DNA binding, fluorescence polarization, 1 h | activity change, % at 10 µM | hit rate 0.3% among 360,000 | AID 1224865; in the data active means activity change above about 30%, passing the limit was not always enough;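 further: controls were the assay level and a saturating level of protein; the project sought stronger binding though the title names inhibitors; some compounds called inactive have numbers as strong as hits; positive values seem to mean higher polarization but the record does not say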
# ALR inh – human ALR oxidase inhibition via reduced H2O2; hit rate 3.8% among 290,000; purified ALR, DTT oxidation, H2O2 HRP-luminol luminescence; P55789; inhibition, % (concentration not given with the values);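 active means mean and each replicate at 75% or more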;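 further: stock transfer was 7.5 nL into about 7.5 µL; 0% = neutral wells and 100% = wells with inactivated enzyme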
# UCH37 DUB inh – blocks the human deubiquitinase UCH37. Q9Y5K5. hit rate 0.33% among 330,000. inhibition, % (test concentration not listed). AID 588478. purified proteasome/UCH37, Ub-AMC cleavage fluorescence;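 active means mean of two replicates above 20%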;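 further: 0% = compound-free wells with enzyme and 100% = wells lacking proteasome; stock transfer was 100 nL into about 20 µL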
# Target sequence (Q9Y5K5 whole entry, looked up): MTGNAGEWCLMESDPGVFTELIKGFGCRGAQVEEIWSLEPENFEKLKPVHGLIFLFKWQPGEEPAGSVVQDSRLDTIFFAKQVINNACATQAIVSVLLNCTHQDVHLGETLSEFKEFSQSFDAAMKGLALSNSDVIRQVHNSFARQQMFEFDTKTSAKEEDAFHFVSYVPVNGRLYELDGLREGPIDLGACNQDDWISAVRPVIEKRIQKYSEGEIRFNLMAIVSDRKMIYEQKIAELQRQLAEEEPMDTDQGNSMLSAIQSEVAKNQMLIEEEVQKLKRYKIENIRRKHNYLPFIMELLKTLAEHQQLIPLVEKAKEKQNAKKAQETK
#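 Material: Human UCH37 enzyme supplied as purified proteasome complex | Schedule: 30 min compound-proteasome preincubation then 25 min substrate reaction, room temperature | Detection: AMC fluorescence from Ub-AMC cleavage, excitation 355 nm, emission 460 nm | Benchmarks: Wells without proteasome as full block, compound-free enzyme plus substrate as uninhibited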
# Ecoli growth – E. coli growth inhibition; AID 1053175; hit rate 0.21% among 330,000; OD600 absorbance (concentration not given with the values); Escherichia coli growth, OD600, 23 h; hits give low values;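 active means OD600 absorbance below the run mean of sample wells minus 3.6 SD, in any replicate, cut at about 0.56 in these data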;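 further: stock transfer was 300 nL into about 60 µL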
# FGF22 binding – shifts melting point of recombinant human FGF22; Q9HCT0; recombinant FGF22 thermal shift, SYPRO orange fluorescence; percent of sucrose octasulfate shift, DMSO zero; calls only at 9.99 µM; hit rate 1.5% among 340,000; AID 651658;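 active means melting point raised past a set limit in the mean and every replicate; three in four hits are not shown here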
# Target sequence (Q9HCT0 whole entry, looked up): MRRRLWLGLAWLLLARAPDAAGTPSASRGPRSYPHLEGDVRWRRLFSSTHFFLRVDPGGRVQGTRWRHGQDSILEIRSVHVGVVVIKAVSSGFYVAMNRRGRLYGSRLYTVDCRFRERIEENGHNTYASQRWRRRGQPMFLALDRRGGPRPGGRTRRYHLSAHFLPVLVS
# LANA-H2B inh – blocks KSHV LANA binding to histone H2A/H2B | inhibition, % (concentration not given with the values) | AID 2629 | hit rate 0.6% among 320,000 | Q9QR71 | cell-free LANA-H2A/H2B peptide, fluorescence polarization; in the data active means inhibition mostly above about 10%, no sharp cut-off; inactive means mostly below about 6.7%;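 further: stock transfer was 7.5 nL into about 10 µL; 0% = median of vehicle wells and 100% = median of positive control wells; one replicate is shown; the record names a cut of 25% in any replicate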
# Beta2AR agonist – human beta-2 adrenergic receptor agonism by FAP | P07550 | Am2.2-beta2AR cells, FAP receptor internalization, flow cytometry; reference of the scale not given here | response, % (concentration not given with the values) | hit rate 0.43% among 340,000;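 active means response above a set limit, near 3 SD of response in nonfluorescent compounds, cut at about 42% in these data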;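 further: stock transfer was 100 nL into about 11 µL; a reference agonist was the positive control; negative values mostly stem from fluorescent compounds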
# Target sequence (P07550 whole entry, looked up): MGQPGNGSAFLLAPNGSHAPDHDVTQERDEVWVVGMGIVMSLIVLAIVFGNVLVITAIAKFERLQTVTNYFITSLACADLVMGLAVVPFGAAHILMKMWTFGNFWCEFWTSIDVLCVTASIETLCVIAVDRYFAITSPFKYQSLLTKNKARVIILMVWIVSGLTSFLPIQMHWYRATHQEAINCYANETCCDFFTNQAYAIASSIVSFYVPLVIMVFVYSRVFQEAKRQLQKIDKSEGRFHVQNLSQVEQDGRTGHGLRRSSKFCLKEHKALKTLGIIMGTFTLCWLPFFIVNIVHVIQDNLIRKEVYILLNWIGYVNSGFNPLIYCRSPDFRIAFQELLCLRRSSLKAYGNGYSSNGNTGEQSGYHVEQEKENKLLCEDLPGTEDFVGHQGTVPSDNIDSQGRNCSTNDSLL
# Active calls of the source: *; i = inactive; / = no result given.
# Under each structure: Ecoli growth	LANA-H2B inh	UCH37 DUB inh	FGF22 binding	HNF4A DNA FP	ALR inh	Beta2AR agonist
> CCn1cc(S(=O)(=O)NCCc2ccc(OC)c(OC)c2)cn1
  0.71	1.7	1.1	/	1.7	-2	-3
> Cc1ccc2c(CC(=O)O)coc2c1C
  0.77	1.7	4.9	/	-0.3	/	5
> CCOC(=O)/C(C#N)=C1\Nc2ccccc2N=C1N(CC(C)C)CC(C)C
  0.74	0.9	-3.5	/	2.2	-35	18
> O=C(CCN1C(=O)[C@H]2CC=CC[C@H]2C1=O)NCc1nc(-c2ccc(Cl)cc2)no1
  0.7	15	-0.3	i	2.2	0	-5
> Cc1[nH]n(-c2ccccc2)c(=O)c1N=Nc1ccc(C(N)=O)cc1
  0.62	-6.2	5.1	i	1.7	17	3
> COc1ccc(NS(=O)(=O)c2ccc3oc(SC)nc3c2)cc1
  0.66	9.0	0.2	i	-0.8	/	-10
> Cc1noc(C)c1C(=O)NNc1ccc(C(C)C)cc1
  0.64	-3.8	0.6	i	2.5	-1	-3
> C=CCNC(=S)N/N=C/c1ccc(-c2ccc(OC)cc2)o1
  /	-1.1	/	i	-2.6	25	12
> CC1CCc2nn(CC(=O)Nc3ccc(F)cc3F)cc2C1 (centres undefined)
  0.67	-6.8	1.1	i	6.4	-1	-9
> Cc1cccc(N(C(=O)CS(=O)CC(=O)Nc2ccc3c(c2)OCO3)C(C)C(=O)NC2CCCC2)c1C (centres undefined)
  0.67	-0.8	3.1	i	3.0	4	1
> CCn1cnc2c1c(=O)n(Cc1cccc(Br)c1)c(=O)n2Cc1ccccc1
  0.69	-2.1	-1.0	i	-1.3	-2	-10
> Cc1ccc(OCC(=O)N/N=C\c2cn(Cc3ccccc3)c3ccccc23)cc1C
  /	-0.5	/	/	1.8	1	4
> COc1cc(CNn2nnnc2N)ccc1OCC(=O)NC(C)(C)C
  0.71	-0.3	3.2	/	0.5	-1	-2
> CCOC(=O)C(C)Oc1ccc(C2NC(=O)NC(C)=C2C(=O)Nc2ccccc2C)cc1 (centres undefined)
  0.74	/	2.6	i	3.4	/	4
> CC(C)CCNC(=O)CNC(=O)c1cccs1
  0.72	-0.7	0.0	/	1.2	0	0
> Cc1nn(C)cc1C(=O)c1ccccc1
  0.67	13	1.9	i	-2.8	-8	2
> Cc1ncc(C[n+]2ccc(C)c(C)c2)c(N)n1
  0.71	-5.9	0.7	i	2.3	27	6
> O=C(c1ccc([N+](=O)[O-])cc1)N(Cc1ccccc1)Cc1ccccc1
  0.66	/	4.7	i	-4.2	/	-2
> Cc1cc(OCc2nc3ccccc3s2)ccc1N
  0.63	2.6	4.4	i	2.9	98*	8
> Cc1cccc(N2CCN(S(=O)(=O)c3cccc4nonc34)CC2)c1C
  0.67	6.3	2.8	/	-0.6	-3	10
> CC(=O)Nc1ccc(-c2csc(NC(=O)C3CSC4(C)CCC(=O)N34)n2)cc1 (centres undefined)
  0.68	0.1	3.7	i	3.8	-6	4
> COc1ccc(N2CCN(C(c3cccs3)C(C)NS(C)(=O)=O)CC2)cc1 (centres undefined)
  0.68	1.8	1.1	i	0.5	99*	-4
> COc1ccc(-c2nn(-c3ccccc3)cc2C(=O)N/N=C/c2ccc([N+](=O)[O-])o2)cc1
  /	-1.1	/	i	0.6	-5	3
> Cc1c(NC(=O)C(C)Sc2nc3ccccc3c(=O)n2CCO)c(=O)n(-c2ccccc2)n1C (centres undefined)
  0.72	-3.9	0.6	/	1.2	-6	-13
> Cc1cccc(C)c1NC(=O)CSc1nnnn1C
  0.63	-1.9	0.5	/	0.8	1	1
> c1ccc(CCc2nc(-c3ccc(-n4cccc4)cc3)no2)cc1
  0.72	4.8	2.0	i	-1.0	/	4
> CCCCCN(C(=O)CCC(=O)OC(C)C(=O)NCc1ccccc1)c1c(N)n(CCCC)c(=O)[nH]c1=O (centres undefined)
  0.64	-0.8	2.5	i	-1.0	-4	-12
> Cc1c(C)c2ccc(OCC(=O)N[C@@H](Cc3ccccc3)C(=O)O)cc2oc1=O
  0.74	-5.8	-124	i	3.0	11	-6
> O=C(Nc1cc(-c2nc3ncccc3o2)ccc1Cl)c1ccco1
  0.69	3.3	-7.9	i	1.5	-2	4
> COC(=O)c1ccc(CSc2nnnn2Cc2ccccc2)cc1
  0.66	4.7	0.5	/	1.2	-4	-4
> CC(C)(C)S(=O)(=O)c1ccc2nc3c(n2c1)CCCC3
  0.69	-0.9	-123	/	-0.4	-15	-8
> CC(C)CC(N=Cc1c(O)c2ccccc2oc1=O)C(=O)O (centres undefined)
  0.67	0.2	5.5	i	2.5	-1	-3
> CCCCCCn1cc(C(=O)O)c(=O)c2cc(F)c(N3CCN(C(=O)OCC)CC3)cc21
  0.68	-1.3	-147	i	-3.1	-12	7
> COC(=O)Cn1ccc2cc(S(=O)(=O)N3CCCCCC3)ccc21
  0.65	-1.7	1.4	i	-4.2	-1	18
> CC(=O)Nc1nc2c(c3c1c(=O)oc1ccccc13)CCCCC2
  0.7	-0.8	-39	/	/	1	/
> CC(C)NC(=O)CSc1ccccc1C(=O)NCc1ccc2c(c1)OCO2
  0.79	0.0	0.8	/	4.2	0	6
> CCC(=O)N1CCN(c2nc3ccc(Br)cc3s2)CC1
  0.68	-2.0	3.9	i	-2.6	-3	-2
> Clc1cccc(CN2CCc3c([nH]c4ccccc34)C2)c1Cl
  /	5.8	/	i	0.9	1	7
> FC(F)Oc1ccc(-c2csc(=Nc3cccnc3)n2CC2CCCO2)cc1 (centres undefined)
  0.72	0.5	0.2	/	-0.1	5	8
> CC(C(=O)NC1CCCCC1)N(Cc1ccc(F)cc1)C(=O)c1snc(C(N)=O)c1N (centres undefined)
  0.71	-4.8	-48	i	-1.3	2	-1

# Brought forward from above: 3 entries; new compounds follow.
# Under each structure: Ecoli growth	LANA-H2B inh	UCH37 DUB inh	FGF22 binding	HNF4A DNA FP	ALR inh	Beta2AR agonist
> Clc1cccc(CN2CCc3c([nH]c4ccccc34)C2)c1Cl
  /	5.8	/	i	0.9	1	7
> FC(F)Oc1ccc(-c2csc(=Nc3cccnc3)n2CC2CCCO2)cc1 (centres undefined)
  0.72	0.5	0.2	/	-0.1	5	8
> CC(C(=O)NC1CCCCC1)N(Cc1ccc(F)cc1)C(=O)c1snc(C(N)=O)c1N (centres undefined)
  0.71	-4.8	-48	i	-1.3	2	-1
> COC(=O)C1CN(C(=O)C(C)Oc2ccc(C)c(C)c2)c2ccccc2O1 (centres undefined)
  0.67	1.9	2.3	i	3.0	-1	-2
> CCCCSCCCNC(=O)Nc1ccc(CC)cc1
  0.66	-1.3	2.3	i	-8.4	-7	7
> CC(C)CCNC(=O)c1sc2ccc(S(=O)(=O)N3CCCCC3)cc2c1N
  0.71	4.8	-5.1	i	-5.3	-3	7
> O=C(Cn1nnc(-c2ccccc2)n1)Nc1cccc(S(=O)(=O)N2CCOCC2)c1
  0.67	4.6	0.7	i	2.9	-8	3
> Cc1ccc(N2C(=O)CS(=O)C(c3ccccc3)C2=O)cc1C (centres undefined)
  0.71	0.1	1.3	i	0.1	98*	10
> Cc1ccc(S(=O)(=O)CCSc2n[nH]c(=O)n2-c2ccc3c(c2)OCCO3)cc1
  /	2.1	/	i	1.0	/	-2
> Cc1nc2ccccn2c1C(=O)CSc1ccccc1Cl
  0.71	-4.1	5.4	/	-1.3	/	-3
> Cc1sc2ncnc(N(C)C3CCCCC3)c2c1C
  0.69	-4.5	1.2	i	-2.2	22	10
> CC1CCCC(NC(=O)COC(=O)c2cccnc2Cl)C1C (centres undefined)
  0.68	-5.4	-2.2	i	-0.5	/	-3
> COc1ccc(NC(=O)Cc2c(F)cccc2Cl)c(OC)c1
  0.73	1.8	2.6	/	0.9	-4	0
> O=C(/C=C/c1cccc([N+](=O)[O-])c1)N1CCN(C(=O)c2ccco2)CC1
  /	-7.2	0.4	/	0.2	-5	-9
> COC(=O)c1cnn(-c2ccc(F)cc2F)c1/C=N/NC(=S)NC(C)(C)C
  /	-0.8	/	i	-0.4	-2	7
> O=C(COC(=O)CSc1ccccc1)NNC(=O)c1ccc([N+](=O)[O-])cc1
  0.68	5.8	2.2	i	4.9	-5	21
> CC(C)c1cc(C(=O)N/N=C/C=C/c2ccccc2)n[nH]1
  /	-4.0	/	/	-3.8	-3	5
> CC(C)n1c(SCc2ccccc2F)nc2c1c(=O)n(C)c(=O)n2C
  0.75	2.7	6.4	i	5.1	-9	7
> Cn1c(Cn2nnc3ccccc32)nnc1SCC(N)=O
  0.73	-0.4	3.7	i	7.7	-5	-1
> CCc1ccccc1NC(=O)CN(c1ccc(OC)cc1OC)S(=O)(=O)c1ccccc1[N+](=O)[O-]
  0.73	0.5	1.1	i	1.7	-7	3
> CC(=O)c1c(C)[nH]c(C(=O)C(C)Sc2nnc(NC3CC3)s2)c1C (centres undefined)
  0.7	0.5	1.7	i	4.6	/	-2
> CC(C)=CCOc1c2ccoc2c(OCC=C(C)C)c2oc(=O)ccc12
  0.73	/	2.4	i	-3.5	/	-13
> O=C(CN(C1CCCCC1)S(=O)(=O)c1ccc(F)cc1)NCc1ccncc1
  0.77	3.1	-0.2	/	-0.9	-14	6
> CC(C)/C=N/NC(=O)c1cc(Br)ccc1O
  /	-0.2	/	/	2.5	44	8
> O=C(Nc1cc2c3c(c1)CC(=O)N3CCC2)c1ccc(F)cc1
  0.66	0.2	2.7	i	-4.6	-8	-2
> Cc1ccc(NC2=C(Cl)C(=O)N(C3CCCCC3)C2=O)cc1
  0.66	-0.9	4.1	/	3.3	-4	-12
> COc1ccc(OC)c(S(=O)(=O)Nc2ccccc2O)c1
  0.68	-4.8	0.3	i	-5.3	99*	9
> COc1ccc(CCc2ccnc3ccccc23)cc1
  0.66	/	1.9	i	3.4	/	-5
> COc1ccc(S(=O)(=O)N2CCCCC2)cc1NS(=O)(=O)c1ccccc1F
  0.65	-2.2	4.9	i	-2.8	-6	14
> CCCCCN(C(=O)CCC(=O)OCC(=O)c1ccc(F)c(F)c1)c1c(N)n(CCCC)c(=O)[nH]c1=O
  0.68	6.7	4.9	i	3.8	-2	3
> COc1ccc(Cl)cc1S(=O)(=O)N1CCC(C(=O)NCc2ccco2)CC1
  0.72	-2.3	1.1	i	-0.6	-8	-2
> CCc1ccc2ncc(S(=O)(=O)c3ccc(C)c(C)c3)c(N3CCCC3)c2c1
  /	2.2	/	/	0.1	-3	5
> COc1cc(C(=O)Nc2ccc(S(=O)(=O)Nc3nccc(C)n3)cc2)c([N+](=O)[O-])cc1OC
  0.69	1.4	7.7	i	-1.5	-13	15
> CCOC(=O)N1CCc2c(sc3c2C(=O)NC(c2ccccc2)N3)C1 (centres undefined)
  0.75	-0.8	-13	/	5.9	/	-10
> Cn1cnc(S(=O)(=O)Nc2cc(-c3ccc(Cl)cc3)nn2C)c1
  0.65	-1.3	1.9	i	4.9	-2	0
> Cc1cccc(C)c1NCC(=O)N1CCN(Cc2ccccc2)CC1
  0.67	4.5	-1.9	i	-2.4	-2	-9
> O=C(COC(=O)c1ccc(O)cc1)Nc1ccc(N2CCCCC2)cc1
  0.68	-4.1	2.0	/	-2.7	37	4
> Cc1cc(O)c(C(=O)/C=C/c2ccc(C(C)C)cc2)c(=O)o1
  0.7	-1.1	3.8	i	2.8	56	10
> Cc1cnc(C(=O)OCC(=O)c2ccc(Cl)cc2)cn1
  0.7	3.6	0.5	i	1.9	-14	-12
> O=C(Cc1ccccc1F)Nc1cc(S(=O)(=O)N2CCOCC2)ccc1N1CCCC1
  0.68	-3.6	0.8	/	2.0	4	/
> CN(C(=O)c1ccc(NC(=O)C2CCN(C(=O)OC(C)(C)C)CC2)cc1)C1CC1
  0.69	-0.7	-0.3	i	1.1	-2	-3

# An excerpt. The share of hits here may be higher or lower than overall.
